HPGD inh = blocks human HPGD enzyme activity. purified HPGD, NADH fluorescence kinetic, PGE2 substrate. Potency, µM, for the others: top-dose activity change, negative = inhibition, hits mostly inhibitors. 150,000 tested, 4.3% active. AID 894; active = well fitted inhibition curve with a large enough effect (not every such curve was filed as active); inconclusive = small, poorly fitted or top-dose-only effect, or another doubt; inactive = no such curve, though single readings can be large or run the other way;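 further: top concentration of the series not given in the record; plate controls included wells without enzyme; inactives centre near -10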
Target sequence (P15428 whole entry, looked up): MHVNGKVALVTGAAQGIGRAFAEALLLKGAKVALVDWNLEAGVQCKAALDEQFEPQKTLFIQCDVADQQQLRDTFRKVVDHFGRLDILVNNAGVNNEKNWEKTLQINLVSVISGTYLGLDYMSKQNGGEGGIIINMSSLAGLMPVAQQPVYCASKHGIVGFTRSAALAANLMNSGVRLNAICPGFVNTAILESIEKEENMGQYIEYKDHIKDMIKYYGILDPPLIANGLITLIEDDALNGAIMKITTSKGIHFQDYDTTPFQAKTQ
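20 nM HPGD preincubated 15 min at room temperature with compound in 50 mM Tris-HCl pH 8, 0.01% Tween 20. Started with 1 mM NAD+ and 30 uM prostaglandin E2; NADH fluorescence (360/450 nm) read 5 times over 30-s intervals, last minus first.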
Active calls of the source: *; ? = inconclusive; & = joins results of further samples. On the % scale 0 is the no-effect control and ±100 the full control effect; potency means the concentration at half of the fitted maximal effect. Not all compounds are listed (hit frequency here may not be typical).

SMILES	HPGD inh
Cc1ccc([N+](=O)[O-])cc1NC(=O)CN(C(=O)c1ccc(Cl)cc1)C1CCCCC1	-6%
COc1ccc(CNc2nc(NCc3ccc(OC)cc3)n(C(C)=O)n2)cc1	-4%
CN(C)c1ccc(N2C(=O)CSC2=S)cc1	-16%
CCc1nc2ccccc2c(C(=O)OCC(=O)NCc2ccco2)c1C	?
O=C1C2ON(c3ccccc3)C(c3ccncc3)C2C(=O)N1c1ccccc1 (stereo unspecified)	-3%
CCC1OC(=O)C(C)[C@@H](O[C@H]2C[C@@](C)(OC)C(O)C(C)O2)C(C)[C@@H](O[C@@H]2OC(C)CC(N(C)C)C2O)[C@@](C)(O)CC(C)C(=O)[C@@H](C)C(O)[C@]1(C)O (stereo partly specified)	-6%
CC(=O)Nc1ccc(-c2ccccc2)s1	-8%
CC(=O)Nc1cc(C(N)=O)c(Cl)cc1Cl	-7%
CCc1cccc(CC)c1NC(=O)COc1ccccc1C(=O)c1cc(C#N)c(=O)n(C2CCCCC2)c1	-11%
COCCn1c(SCC(=O)c2ccc3c(c2)OCCO3)nnc1C(C)C	-9%
COc1ccc2c(c1)c1nc3ccccc3nc1n2CCn1c(=O)oc2ccccc21	-7%
Clc1ccc(/C=N/Nc2ncnc3ccccc23)cc1Cl	-5%
COc1cccc(-n2cc(C(=O)O)c3ccccc3c2=O)c1	?
CC1(C)CC(c2nc(-c3ccccc3)cs2)CCS1 (stereo unspecified)	1%
CC(=O)Nc1ccc(S(=O)(=O)Nc2c(C)nn(-c3ccccc3)c2C)cc1	-7%
Cc1c(C(=O)Nn2cnnc2)oc2ccccc12	-11%
CC(/C=N/NC(=O)CSc1nnc(SCc2ccccc2)s1)=C\c1ccco1	-16%
Cc1ccc(Cl)cc1NC(=O)C1CCCN(S(=O)(=O)c2c(C)noc2C)C1 (stereo unspecified)	-10%
CCCOc1c(OC)cc(Cl)cc1C1NC(=O)NC(C)=C1C(=O)NCc1ccccc1 (stereo unspecified)	-1%
N#Cc1ccc(CN2CC[C@@]3(CCCN(C(=O)c4cc(C(F)(F)F)cc(C(F)(F)F)c4)C3)C2)cc1	-11%
COc1ccc2[nH]cc(/C=C(/C#N)S(=O)(=O)c3ccccc3)c2c1	-11%
COc1ccc2c(=O)c(C(=O)NCCc3ccc(OC)c(OC)c3)c[nH]c2c1	-15%
CC1Cc2ccccc2N1C(=O)Cn1c(=O)cc(O)c2ccccc21 (stereo unspecified)	-9%
C=CCNC(=O)CSc1nc2sc(C)c(C)c2c(=O)[nH]1	14µM*

Structural class, those above containing four or more nitrogen atoms
SMILES	HPGD inh
COc1ccc(CNc2nc(NCc3ccc(OC)cc3)n(C(C)=O)n2)cc1	-4%
COc1ccc2c(c1)c1nc3ccccc3nc1n2CCn1c(=O)oc2ccccc21	-7%
Clc1ccc(/C=N/Nc2ncnc3ccccc23)cc1Cl	-5%
CC(=O)Nc1ccc(S(=O)(=O)Nc2c(C)nn(-c3ccccc3)c2C)cc1	-7%
Cc1c(C(=O)Nn2cnnc2)oc2ccccc12	-11%
CC(/C=N/NC(=O)CSc1nnc(SCc2ccccc2)s1)=C\c1ccco1	-16%

Quoted at random: 7 records from the list
SMILES	HPGD inh
COc1ccc(CNc2nc(NCc3ccc(OC)cc3)n(C(C)=O)n2)cc1	-4%
COc1cccc(-n2cc(C(=O)O)c3ccccc3c2=O)c1	?
CCc1nc2ccccc2c(C(=O)OCC(=O)NCc2ccco2)c1C	?
COc1ccc2[nH]cc(/C=C(/C#N)S(=O)(=O)c3ccccc3)c2c1	-11%
CC1(C)CC(c2nc(-c3ccccc3)cs2)CCS1 (stereo unspecified)	1%
O=C1C2ON(c3ccccc3)C(c3ccncc3)C2C(=O)N1c1ccccc1 (stereo unspecified)	-3%
C=CCNC(=O)CSc1nc2sc(C)c(C)c2c(=O)[nH]1	14µM*

Further compounds follow:
SMILES	HPGD inh
COc1ccccc1OCCOCCn1cnc2ccccc2c1=O	-11%
CCOC(=O)N1CCN(CC(O)COc2ccc(OC)cc2C(C)(C)C)CC1 (stereo unspecified)	-9%
COC(=O)c1nn(-c2ccccc2)c(Cl)c1/C=N/OCc1ccc(Cl)cc1Cl	-7%
NC[C@@H]1O[C@H](O[C@@H]2[C@H](O[C@@H]3O[C@H](CO)[C@@H](COC[C@H]4O[C@@H](CN)[C@@H](O)[C@@H](O)[C@@H]4N)[C@@H]3O)[C@@H](O)[C@@H](N)C[C@H]2N)[C@@H](N)[C@H](O)[C@@H]1O	-5%
COc1ccc2oc(=O)c(NC(=O)C3CCCCC3)cc2c1	-23%
COc1ccc(C2C(C(=O)O)CCC(=O)N2c2ccc(OC)cc2)cc1 (stereo unspecified)	2%
CCc1nnc(NC(=O)c2ccc(S(=O)(=O)N3CCCCCC3)cc2)s1	-8%
O=C(O)C=Cc1ccc(Cn2ccnc2)cc1	-11%
CC(C)Cc1ccc(/C(=N/O)C(=O)O)s1	?
COCCNC(=O)C(OC(=O)c1ccco1)c1ccccc1OC (stereo unspecified)	-8%
COc1ccc(NC(=O)CCN2C(=O)c3ccccc3S2(=O)=O)cc1	-6%
COc1cc(-c2nnc(SCc3cc(=O)oc4cc(O)c(O)cc34)o2)cc(OC)c1OC	7.9µM*
O=C(NCCNS(=O)(=O)c1ccccc1)c1cc(OCC(F)(F)F)ccc1OCC(F)(F)F	-17%
CCOc1ccccc1-c1nc(C(N)=O)c2[nH]c(=O)n(-c3ccccc3)c2n1	-23%
CC(=O)Cc1nsc(Nc2ccccc2)n1	-15%
Cc1ccc(C(=O)Nc2ccc(C)c(S(=O)(=O)Nc3ccccc3Cl)c2)s1	-30%
CC(=O)Nc1ccc(C(=O)OCC(=O)NC(=O)NC2CCCCC2)cc1	-26%
COC(=O)C1CCN(c2nc3ccccc3nc2C(C#N)C(=O)NCCc2ccccc2)CC1 (stereo unspecified)	-5%
CCC(C)(C(=O)NC1CCCCC1)N(C(=O)CNC(C)=O)c1c(C)n(C)n(-c2ccccc2)c1=O (stereo unspecified)	-10%
CCCn1c(SCC(=O)Nc2ccccc2-c2ccccc2)nnc1-c1ccoc1C	-2%
CCOc1ccc(NC(=O)C(C)Oc2ccccc2C(=O)Nc2cccc(Cl)c2Cl)cc1 (stereo unspecified)	0%
Cc1cccc(N2C(=O)CSC2c2cccnc2)c1 (stereo unspecified)	6%
Fc1ccc(-c2cc(C(F)(F)F)nc(N3CCCCC3)n2)cc1	-30%
Cc1ccccc1CN1C2=NCCN2C(=O)C2=C1CCN(Cc1ccccc1)C2	-5%

2 successive compounds already listed, quoted:
SMILES	HPGD inh
Fc1ccc(-c2cc(C(F)(F)F)nc(N3CCCCC3)n2)cc1	-30%
Cc1ccccc1CN1C2=NCCN2C(=O)C2=C1CCN(Cc1ccccc1)C2	-5%

Next compounds follow.
SMILES	HPGD inh
Cc1ccc(-c2cc(C(=O)Nc3ccc4c(c3)OCCO4)c3ccccc3n2)cc1	0%
CCOC(=O)CSc1nc(C)c(C(=O)OCC)s1	-21%
CCC1C(C#N)=C(N)OC2=C1C(=O)CC(C)(C)C2 (stereo unspecified)	-22%
CCOC(=O)c1cn2nc(-c3ccc(OC)cc3)cc2nc1C1CCN(C(=O)OC(C)(C)C)CC1	?
CCOC(=O)C1CCN(C(=O)CCCN2C(=O)c3ccccc3C2=O)CC1	-11%
CCC(=O)Oc1c(C(=O)CC)cc2c(C)cc(=O)oc2c1C	15%
CCOC(=O)c1cnc(-c2ccccc2)nc1Oc1ccccc1	-11%
Cc1ccc(-n2nc3c(SCCN4CCOCC4)nnc(C)c3c2C)cc1	-18%
COc1ccccc1Nc1nc(N)nc(CN2CCN(c3ccccc3)CC2)n1	-8%
CCCCNS(=O)(=O)c1ccc2nc(-c3cccnc3)cc(C(=O)NC3CC3)c2c1	-15%
COc1ccccc1CNC(=O)c1ccoc1C	-22%
O=S(=O)(Nc1ccccn1)c1cnc(Cl)c(Br)c1	-11%
N#Cc1nc(Cc2cccc3ccccc23)oc1N1CCN(c2ccccc2)CC1	-23%
CC1=C(C)CS(=O)N(S(=O)(=O)c2ccc(Cl)cc2)C1 (stereo unspecified)	-25%
c1coc(-c2nnc3n2C2(CCCC2)Cc2ccccc2-3)c1	-1%
O=C(NCCN1CCOCC1)C1CCN(Cc2ccccc2O)CC1	0%
COc1cccc(Cn2c(-c3nonc3N)nc3ccccc32)c1	-15%
Cc1ccc(C)c(NC(=O)CSc2nnc(-c3ccccc3)n2N)c1	-8%
COc1ccc(N2CCN(c3ncccn3)CC2)cc1	-7%
COc1ccc(C(=O)COC(=O)[C@H](C)Nc2ccc(C(F)(F)F)cc2[N+](=O)[O-])cc1	-12%
C1CCC2=NCCCN2CC1	-1%
COc1cc2c(cc1OC)C1C(=O)c3c(O)cc4c(c3OC1CO2)C=CC(C)(C)O4 (stereo unspecified)	-20%
Cc1noc(C)c1C(=O)Nc1c(F)cc(F)cc1Br	-13%
CC12CC(c3ccccc3O1)N(C(=O)c1ccc(Br)o1)C(=O)N2c1ccccc1 (stereo unspecified)	2%
CCS(=O)(=O)N1CCCC(C(=O)NC2CCC(C)CC2)C1 (stereo unspecified)	-2%
CCOC(=O)Nc1ccc2c(c1)N(C(=O)CCN1CCN3CCCC3C1)c1ccccc1CC2 (stereo unspecified)	-4%
Nc1ncn([C@@H]2O[C@H](CO)[C@@H](O)[C@H]2O)c(=O)n1	-8%&-6%
CC1(C)Cc2ccccc2-c2nnc(C(F)(F)F)n21	-3%
Cc1noc(C)c1C(=O)N1CCC2(CCCN(C(c3ccccc3)c3ccccc3)C2)CC1	-9%
C=CCc1ccccc1OCC(O)CN1CCN(c2ccccc2OC)CC1 (stereo unspecified)	-16%
c1ccc(-n2nnnc2Sc2ncnc3sc4c(c23)CCCC4)cc1	?
Cc1sc(NC(=O)CSc2nnc(C(C)C)n2C)c(C#N)c1C	2%
COc1ccc(Cn2c(=O)sc3ccccc32)cc1OC	-10%
Cc1ccc(C)c(Cn2c(=O)n(CCC(=O)NCc3ccco3)c(=O)c3sccc32)c1	-11%
Cc1cccc(-c2nsc(SCC(=O)N3CCCC3)n2)c1	?
Cc1cc2ncn(-c3ncnc4scc(-c5ccccc5)c34)c2cc1C	-24%
O=C(CS(=O)CC(=O)N(c1ccccc1)C(C(=O)NC1CCCCC1)c1ccco1)Nc1ccc(F)cc1 (stereo unspecified)	0%
O=C(NCC1CCCO1)c1cc2n(n1)C(C(F)(F)F)CC(c1ccc(Br)cc1)N2 (stereo unspecified)	-13%
C=CCn1c(-c2cccn(Cc3ccccc3)c2=O)n[nH]c1=S	25%
Cc1nc2ccccn2c1P(=O)(N1CCCCC1)N1CCCCC1	?
O=C(CSc1nc2cc([N+](=O)[O-])ccc2n1-c1ccc(F)cc1)NC1CCS(=O)(=O)C1 (stereo unspecified)	-9%
Cc1cc(C(=O)COC(=O)c2ccc[nH]c2=O)c(C)n1C	-2%
O=C(N1CCN(c2ccccc2)CC1)C1(c2cccs2)CCOCC1	-12%
C=CC(C1=CC(=O)C=CC1=O)c1ccc(O)cc1 (stereo unspecified)	?
CCCCNC(=O)CN(c1cccc(Br)c1)S(C)(=O)=O	-5%
Cn1nc(N)c2c(-c3ccccc3)c(C#N)c(N)nc21	-2%
CCCCC/C=C\C/C=C\C/C=C\CCCCC(N)=O	-7%
CCOC(=O)CN1C(=O)N[C@@H](c2cccs2)C(C(=O)OC)=C1C	-4%
Cc1cccc(OCCC(=O)N(C)CC(=O)Nc2cccc3ccccc23)c1	-4%
c1ccc2c(c1)nnn2Cc1nnc2sc(-c3ccncc3)nn12	18µM*
CC1CCCCN1S(=O)(=O)c1ccc(NC(=O)CSc2nnnn2C)cc1 (stereo unspecified)	-30%
CCCCOc1ccc(Nc2nc(C)cc(C)c2C#N)cc1	?
Cn1cnnc1SCC(=O)Nc1cccc(C(=O)O)c1	-1%
CCOc1ccc(/C=N/NC(=O)c2ccc(CSc3nc4ccccc4[nH]3)cc2)cc1	?
O=C(NCCN1CCNCC1)c1ccccn1	-12%
COC(=O)c1ccc(C)c(NC(=O)CN(c2ccc3c(c2)OCO3)S(C)(=O)=O)c1	-17%
S=C(Nc1ccc(Cl)cc1Cl)N1CCCCC1	-7%
O=C(C(Cc1ccccc1)n1cccc1)N1CCN(c2ncccn2)CC1 (stereo unspecified)	-14%
COc1ccc(CSc2nc(N3CCOCC3)c3c(c2C#N)CC(C)(C)OC3)cc1	?
CCCCCCC(=O)Cc1cc(OC)c(OC)cc1C=C(C(=O)OCC)C(=O)OCC	?

Next section
SMILES	HPGD inh
CCCC(=O)NCCCc1nc2ccccc2n1CCC	-9%
NC/C=C/C(=O)O	-4%&-2%
Cc1ccc2oc(=O)c3cnn(CC(=O)N4CCCc5ccccc54)c3c2c1	-21%
S=c1[nH]nc(CSc2nc3ccccc3s2)o1	-26%
CC(C)(N)C(=O)N[C@@H]1C(=O)N2[C@@H]1SC(C)(C)[C@H]2C(=O)O	-9%
CCS(=O)(=O)NCC(c1cccnc1)N1CCN(c2ccccc2)CC1 (stereo unspecified)	3%
N#CC(c1ccc(Cl)nn1)c1ccccc1Cl (stereo unspecified)	-12%
O=C(NCc1ccco1)C(c1cccs1)N(C(=O)Cc1cccs1)c1ccccc1 (stereo unspecified)	-6%
CCCC(=O)Nc1ccc(C(=O)Nc2nnc(COCC)s2)cc1	-2%
CC(=O)Nc1nc2ccccc2n1CCOc1ccccc1	-15%
Cc1ccnc(NS(=O)(=O)c2ccc(NC(=O)c3c(-c4ccccc4Cl)noc3C)cc2)n1	-22%

From PubChem BioAssay
